Screening results (PubChem BioAssay)
Mtb hypoxia rep = reduces hypoxia-regulated biosensor signal in M. tuberculosis. M. tuberculosis hypoxia-regulated fluorescent reporter, fluorescence. fluorescence inhibition, % (no concentration beside the values). 300,000 compounds, 0.1% hits. AID 1159583;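 active = 35 to 45% if threefold the growth effect, above 45% if 1.5-fold the growth effect; inactive = the rest, general growth blockers included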;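 also: wells of about 50 µL received 100 nL stock; 0% = vehicle wells and 100% = reference inhibitor wells; whole bacteria with a GFP reporter of the hypoxia response; strong numbers were not always called active; many hits fall short of the cut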
BJeLR viability = BJeLR cell viability loss. BJeLR (HRASV12) viability, CellTiter-Glo ATP luminescence, 48 h; reference of the scale not given here. inhibition, % (concentration not given with the values). 300,000 compounds, 0.17% hits. AID 1554;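 active = replicate mean above 50%; inconclusive = above 50% but judged a plate artefact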;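 also: 50 nL library stock added to about 25 µL; numbers are from one replicate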
Sa ugtP lethal = growth inhibition of S. aureus ugtP deletion strain. S. aureus RN4220 ugtP deletion, OD600 growth, 16 h; some inactives read as strong as hits. growth inhibition, % (concentration not given with the values). 330,000 compounds, 0.54% hits;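 active = z-score under -3 and OD600 up to 0.15 on both plates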;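 also: plate controls were untreated wells for no effect and antibiotic for full effect; wells of about 80 µL received 100 nL stock; the first replicate is given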
Bead autofluor = flagged as autofluorescent in microsphere protease counterscreen. compound autofluorescence counterscreen, microsphere flow cytometry; hits give high values. fluorescence intensity (no concentration beside the values). 360,000 compounds, 3.1% hits. AID 624483;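 active = at least 3 SD above the mean of all compounds, about 16000 in these data; inconclusive = too few beads counted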;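 also: 100 nL of 1 mM stock went into each well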
PrP 5UTR inh = inhibition of PrP 5' UTR reporter expression. 340,000 compounds, 0.35% hits. cell-based PrP 5' UTR mRNA reporter, plate reader. inhibition, % (concentration not given with the values);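 active = every replicate at 50% or more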;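 also: 0 = median of the neutral control wells; tested in H4 reporter cells; numbers are from one replicate; inactives centre near -14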
Sa RN4220 lethal = S. aureus RN4220 growth inhibition | 330,000 compounds, 0.33% hits | inhibition, % (test concentration not listed) | OD600, 16 h | AID 1259311;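 active = z-score of -3 or lower and OD600 up to 0.18 on both plates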;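 also: plate controls were untreated cells for no effect and reference antibiotic for full effect; stock transfer was 100 nL into about 80 µL; one replicate is shown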
Mtb hypoxia rep growth = second read-out of Mtb hypoxia rep, no call of its own (marks repeat the call); growth inhibition, %; measured here: M. tuberculosis growth (absorbance);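 0% = vehicle and 100% = reference antibiotic; read after six days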
An asterisk follows results filed as active; ? = inconclusive; / = no result given.

SMILES	Mtb hypoxia rep	Mtb hypoxia rep growth	BJeLR viability	Sa ugtP lethal	Bead autofluor	PrP 5UTR inh	Sa RN4220 lethal
O=C(NCc1ccccc1)C(Cc1ccccc1)NS(=O)(=O)c1cccc2nsnc12 (stereo unspecified)	11	8	-8	1	10766	-18	5.0
COc1cc(/C=N/NS(=O)(=O)c2ccccc2)ccc1OS(=O)(=O)c1ccc(C)cc1	/	/	0	/	2411	-12	/
COc1ccc(C2CC(c3ccc([N+](=O)[O-])cc3)=NN2C(C)=O)cc1 (stereo unspecified)	/	/	-17	/	3849	-58	/
CCOC(=O)c1oc2ccccc2c1COC(=O)CNC(=O)c1cccc(C)c1	10	0	0	1	5754	-21	3.5
CCN(CC)S(=O)(=O)c1ccc2c(c1)c(=O)c(C(=O)N1CCc3ccccc3C1)cn2C	-5	8	-1	2	7325	-22	2.5
CC(C)(C)c1cnnn1-c1ccc(C=NNc2ccc([N+](=O)[O-])cc2)cc1	-3	6	/	-8	/	/	1.6
CCOC(=O)NN=C(C)c1ccc(OC(F)F)cc1OC(F)F	12	6	/	2	/	/	-1.1
Cc1cc(NC(=O)c2cccc(S(=O)(=O)N3CCCCCC3)c2)no1	8	10	9	19	17368*	2	5.2
CC(=O)c1c(C)[nH]c(C(=O)N2CCc3ccccc3C2)c1C	/	/	6	8	2388	-11	1.6
CCc1ccccc1N1C(=O)NC(=O)/C(=C\c2cc(C)n(C)c2C)C1=O	10	5	-9	8	2626	-28	5.2
O=C(Nc1ccc2c(c1)oc1ccccc12)c1ccc2c(c1)OCO2	1	0	1	-11	8804	-72	-6.6
COc1cccc(CN2CCNC(=O)C2CC(=O)NCCN2CCOCC2)c1OC (stereo unspecified)	0	7	4	3	6293	1	1.9
CN(CC(=O)Nc1ccc(N2CCOCC2)cc1)C(=O)CCc1cc(C(C)(C)C)c(O)c(C(C)(C)C)c1	/	/	2	/	5499	-31	/
COc1cc(/C=N/NC(=O)C(=O)NCC2CCCO2)ccc1OCC(=O)N1CCOCC1 (stereo unspecified)	/	/	7	/	4093	-15	/
COc1ccc(N(CC(=O)NCc2ccc3c(c2)OCO3)C(=O)c2csnn2)cc1	0	-5	-2	7	4576	-8	4.0

Brought forward from above: 5 compounds; new compounds follow.
SMILES	Mtb hypoxia rep	Mtb hypoxia rep growth	BJeLR viability	Sa ugtP lethal	Bead autofluor	PrP 5UTR inh	Sa RN4220 lethal
O=C(Nc1ccc2c(c1)oc1ccccc12)c1ccc2c(c1)OCO2	1	0	1	-11	8804	-72	-6.6
COc1cccc(CN2CCNC(=O)C2CC(=O)NCCN2CCOCC2)c1OC (stereo unspecified)	0	7	4	3	6293	1	1.9
CN(CC(=O)Nc1ccc(N2CCOCC2)cc1)C(=O)CCc1cc(C(C)(C)C)c(O)c(C(C)(C)C)c1	/	/	2	/	5499	-31	/
COc1cc(/C=N/NC(=O)C(=O)NCC2CCCO2)ccc1OCC(=O)N1CCOCC1 (stereo unspecified)	/	/	7	/	4093	-15	/
COc1ccc(N(CC(=O)NCc2ccc3c(c2)OCO3)C(=O)c2csnn2)cc1	0	-5	-2	7	4576	-8	4.0
CCSc1ccccc1C(=O)NCc1ccco1	4	7	-6	4	24013*	-30	-2.5
Cc1c(Cl)c(C(=O)N2CCCc3ccccc32)nn1C	/	/	2	-4	3724	-9	8.8
O=C1CC(C(=O)N2CCC3(CC2)OCCO3)CN1CCc1ccccc1 (stereo unspecified)	-5	8	-11	6	2835	-15	11
Cc1cc(OC(C)C(=O)N2CCN(c3ccc(F)cc3)CC2)c2c(C)c(C)c(=O)oc2c1 (stereo unspecified)	0	4	-6	-1	5007	-11	3.2
CCn1c(=S)[nH]c2c(=O)n(C)c(=O)n(C)c21	7	8	/	-3	2980	3	2.3
CCOc1ccccc1NC(=O)NCc1cccnc1	7	-2	13	-1	4006	-19	-2.3
Cc1ccc(CNC(=O)Nc2ccc(F)cc2)n1C	2	1	-12	8	4076	-18	-3.0
O=C(CCl)Nc1cccc(S(=O)(=O)NC2=NCCCCC2)c1	8	16	/	2	2982	-4	2.7
N#CC(c1ccc(Cl)nn1)c1ccc(Cl)cc1Cl (stereo unspecified)	1	11	-1	-6	2841	-18	12
CCC1CCCCN1C(=S)NC(=O)c1cccs1 (stereo unspecified)	1	3	-4	-6	4226	-18	2.4
COc1ccc(N/C=C/C(=O)c2ccc3c(c2)OCO3)cc1OC	-9	-9	5	-2	2594	-30	0.5
COCCNc1nc2c(c(=O)n(Cc3cccc(Cl)c3)c(=O)n2C)n1C	-14	-12	-6	4	5111	7	1.4
CCOc1ccccc1NC(=O)C(OC(=O)c1cnccn1)c1ccccc1 (stereo unspecified)	9	13	-12	6	?	-12	3.9
COC1=CCC2([N+](=O)[O-])CN(CC(=O)O)CC1([N+](=O)[O-])C2 (stereo unspecified)	1	5	5	2	7658	-13	2.3
CCCn1cnnc1CNC(=O)C1CCC(=O)N(CCc2cccc(F)c2)C1 (stereo unspecified)	5	-1	2	7	4715	6	0.6

More records.
SMILES	Mtb hypoxia rep	Mtb hypoxia rep growth	BJeLR viability	Sa ugtP lethal	Bead autofluor	PrP 5UTR inh	Sa RN4220 lethal
Cc1ccc2c(c1)COc1c3ccc(C(=O)N[C@@H](C)CO)cc3nn1-2	/	/	11	/	3909	-47	/
O=C(CN1CCCCC1)c1cccc(Br)c1	9	5	20	8	9293	-13	-1.1
CC(C)Cc1cc(C(=O)Nc2cc(Br)ccc2O)no1	-6	10	18	-10	4576	-19	21
Cc1c2c(nc3ccccc13)CCC(C)C2 (stereo unspecified)	/	/	-5	3	4650	-21	5.1
CCOC(=O)c1ccc(S(=O)(=O)NNS(=O)(=O)c2ccc(C)cc2)cc1	-1	-7	-1	-2	3670	-35	-1.2
COc1cc(C(=O)O[C@H]2CC(C)=CCC[C@]3(C)O[C@@H]3C(O)C2C(C)C)cc(OC)c1OC (stereo partly specified)	8	-6	/	-1	/	/	2.8
CCOc1ccccc1C(=O)N[C@H](C(=O)NNC(=O)c1cccs1)C(C)C	4	7	/	2	/	/	5.5
Cc1nonc1CC(=O)N1CCCC(C(=O)c2ccc(Cl)cc2)C1 (stereo unspecified)	11	16	-5	12	4140	-21	4.4
O=C(CN1CCN(S(=O)(=O)c2ccc(Br)cc2)CC1)NN=Cc1ccccc1C(=O)O	8	4	/	0	/	/	12
CCOC(=O)C1(CCOc2ccccc2)CCN(Cc2ccc(OC)cc2)CC1	/	/	-4	/	3922	-30	/
COc1ccc(CNC(=O)[C@@H]2CC=C[C@@H]3CCN(Cc4ccccc4)C(=O)[C@@H]32)cc1	/	/	4	/	4150	13	/
CC1CCCC(C)N1C(=O)CSc1nc2ccccc2s1 (stereo unspecified)	18	6	-8	0	9987	-31	6.8
FC(F)Oc1ccc(NC(=S)Nn2cnnc2)cc1	0	5	5	9	4472	-25	7.4
CC(C)CCOc1cccc(OCC(=O)NC2CCS(=O)(=O)C2)c1 (stereo unspecified)	5	9	4	-1	9550	-26	7.9
COC(=O)C(C)NC(=S)N1CC2C[C@@H](C1)Cn1c2cccc1=O (stereo partly specified)	1	-5	0	5	2737	11	-0.9

Other structures
SMILES	Mtb hypoxia rep	Mtb hypoxia rep growth	BJeLR viability	Sa ugtP lethal	Bead autofluor	PrP 5UTR inh	Sa RN4220 lethal
COc1ccccc1NC(=O)c1cc2ccc(O)cc2oc1=NO	9	-1	/	-15	/	/	1.5
CCn1c(CN2CCN(CCO)CC2)nc2ccccc21	5	6	-4	4	2143	-14	1.7
O=c1c2ccccc2sc2ccc(Cl)cc12	16	1	-1	26	2475	-55	3.1
CCc1ccc(-n2c(SCC(=O)N3CCC(C(=O)O)CC3)nnc2-c2ccncc2)cc1	12	8	-6	2	3176	-11	2.0
Cc1ccc(C(=O)Nc2ncccc2O)cc1S(=O)(=O)N1CCCCC1	-2	3	2	-5	4611	-1	3.7
CC(=O)NC(=O)COC(=O)/C=C/c1c(C)nn(Cc2c(Cl)cccc2Cl)c1Cl	/	/	4	4	4677	-14	4.6
Cc1ccc2[nH]c(O)c(N=Nc3nc4ccccc4s3)c2c1	18	1	8	-8	4766	-13	14
COc1ccccc1-c1sc2ccccc2c1-c1ccc2c(c1)OCCO2	5	12	/	99*	4419	-29	-9.7
O=C(CNC(=O)c1ccco1)NCC(=O)OCc1ccc(Cl)cc1Cl	15	14	-1	8	3559	-25	3.7
COc1ccc(N2C(=O)CC(N(CCc3ccccc3)C(=O)/C=C/C(=O)O)C2=O)cc1 (stereo unspecified)	6	5	-2	12	4549	-21	0.4
CC(=O)N(Cc1cc(=O)[nH]c2ccccc12)c1ccc(C)cc1	7	4	-1	4	2709	-17	9.8
O=C(O)c1ccccc1C(=O)NCc1ccccc1	/	/	-2	-6	2705	-10	-1.7
O=C(NN=Cc1cccnc1)C1c2ccccc2Oc2ccccc21	-9	6	/	-13	/	/	1.7
COc1ccc(S(=O)(=O)N2CCN(C(=O)[C@H](Cc3ccccc3)NC(=O)c3ccco3)CC2)cc1	5	4	/	3	/	-23	5.0
O=C1C(Cl)=C(NCc2ccco2)C(=O)c2ccccc21	11	7	/	69	3707	-51	80

Reformatted with values under each structure: part of the list above.
Results follow in this order: Mtb hypoxia rep | Mtb hypoxia rep growth | BJeLR viability | Sa ugtP lethal | Bead autofluor | PrP 5UTR inh | Sa RN4220 lethal
- O=C(O)c1ccccc1C(=O)NCc1ccccc1
 : / | / | -2 | -6 | 2705 | -10 | -1.7
- Cc1ccc2[nH]c(O)c(N=Nc3nc4ccccc4s3)c2c1
 : 18 | 1 | 8 | -8 | 4766 | -13 | 14
- CCc1ccc(-n2c(SCC(=O)N3CCC(C(=O)O)CC3)nnc2-c2ccncc2)cc1
 : 12 | 8 | -6 | 2 | 3176 | -11 | 2.0
- O=C(CNC(=O)c1ccco1)NCC(=O)OCc1ccc(Cl)cc1Cl
 : 15 | 14 | -1 | 8 | 3559 | -25 | 3.7
- CC(=O)N(Cc1cc(=O)[nH]c2ccccc12)c1ccc(C)cc1
 : 7 | 4 | -1 | 4 | 2709 | -17 | 9.8

The results go on.
SMILES	Mtb hypoxia rep	Mtb hypoxia rep growth	BJeLR viability	Sa ugtP lethal	Bead autofluor	PrP 5UTR inh	Sa RN4220 lethal
COC(=O)C1CN(Cc2ccccc2)C(=O)C1=O (stereo unspecified)	22	11	/	1	3767	-10	1.8
COC(/C=C/Nc1ccc(Br)cc1)=C(C#N)C#N	12	8	5	2	8237	-25	2.4
CCN(CC)S(=O)(=O)c1ccc(O)c(C(=O)OCC(=O)Nc2ccc(OC(F)(F)F)cc2)c1	2	7	-3	-1	3363	-45	5.6
Cn1c(NC(=O)C=Cc2ccccc2)cc(=O)n(C)c1=O	-2	-5	/	-12	/	/	5.5
COc1ccc(C2=NN(C(C)=O)C(c3cccs3)C2)cc1OC (stereo unspecified)	/	/	-5	/	4145	-16	/
Cc1cccn2cc(CCNS(=O)(=O)c3cccc([N+](=O)[O-])c3)nc12	8	9	3	9	4386	-14	4.4
Cc1ccccc1-n1c(C)nnc1SCC(=O)NNC(=O)c1ccccc1	-2	9	0	6	2127	-29	5.9
CCn1c(SCC(=O)O)nnc1-c1ccccc1	5	0	3	0	3976	-8	0.9
O=c1c2ccccc2c(-c2ccccc2)nn1Cc1ccc(Cl)cc1	4	6	0	-3	?	-13	-4.3
CCOC(=O)c1ccc(NC(=O)c2nc[nH]c2C(=O)N(C)Cc2ccccc2)cc1	10	3	-2	1	2727	-13	6.9
CN(Cc1ccccc1)C(=O)[C@H]1CCC(=O)N1Cc1ccco1	7	10	-9	0	5025	-46	3.0
CN(Cc1c(C(=O)N/N=C/c2ccc(O)cc2)nnn1-c1nonc1N)C1CCCCC1	/	/	2	/	7082	-18	/
COC(=O)Cc1c[nH]c2cccc(OCC(O)CN(Cc3ccccc3)C(C)C)c12 (stereo unspecified)	13	16	14	1	8939	-21	9.2
CCOc1ncccc1C(=O)Nc1ccc2c(c1)OCO2	/	/	-6	/	4113	-16	/
COc1ccc(CCNC(=O)CN2C(=O)COc3ccc(S(=O)(=O)N4CCOCC4)cc32)cc1OC	17	9	-7	4	5026	-1	1.9
COC(=O)[C@]1(Cc2ccccc2)NC(c2ccc(-c3ccc(F)cc3)cc2)C2C(=O)N(C)C(=O)C21 (stereo partly specified)	11	9	/	-9	/	/	0.0
O=C(O)c1ccc(NC2=C(Cl)C(=O)c3ccccc3C2=O)cc1	22	2	-5	-13	4456	-16	24
CN(C(=S)SCc1ccccc1)C1CCS(=O)(=O)C1 (stereo unspecified)	-2	-1	2	10	4599	-30	7.9
